VDR inhibitor – Inhibitors of the vitamin D receptor (VDR): qHTS. Vitamin D3 receptor (Homo sapiens), P11473. VDR-SRC2-3 peptide fluorescence polarization, 2 h. Potency, µM, for inactives: max response, negative = inhibition, actives largely listed as inhibitors. 400,000 tested, 0.93% active; active means well fitted inhibition curve with a large enough effect; inconclusive means small, poorly fitted or top-dose-only effect, or another doubt; inactive means no such curve, though single readings can be large or run the other way; further: series mostly up to about 120 µM
Target sequence (P11473 whole entry, looked up): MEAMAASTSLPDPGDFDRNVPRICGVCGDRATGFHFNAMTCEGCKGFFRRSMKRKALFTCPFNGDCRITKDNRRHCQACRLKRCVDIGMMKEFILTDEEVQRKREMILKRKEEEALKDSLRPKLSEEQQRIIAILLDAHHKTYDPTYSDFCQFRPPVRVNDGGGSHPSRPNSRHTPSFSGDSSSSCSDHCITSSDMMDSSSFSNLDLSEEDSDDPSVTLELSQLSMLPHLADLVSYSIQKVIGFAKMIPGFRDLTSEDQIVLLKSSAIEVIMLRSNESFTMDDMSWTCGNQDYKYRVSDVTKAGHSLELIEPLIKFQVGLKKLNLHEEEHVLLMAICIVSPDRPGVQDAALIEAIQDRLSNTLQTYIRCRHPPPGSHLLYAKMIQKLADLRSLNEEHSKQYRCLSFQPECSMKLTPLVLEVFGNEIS
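VDR–SRC2-3 interaction, FP format. Cmpds 23 nl via pintool, brief spin, 2 h ambient incubation.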
* marks the source's active call; other numbers are inactive results; ? = inconclusive; & = joins results of further samples; [ ] = remark or other dose. On the % scale 0 is the no-effect control and ±100 the full control effect; potency means the concentration at half of the fitted maximal effect. Some of the compounds tested. The share of hits here may be higher or lower than overall.

cpd	VDR inhibitor	Compound
1	12.8%	CC(C)[C@H](NC(=O)[C@@H]1Cc2ccccc2CN1C(=O)OC(C)(C)C)C(=O)NCC1CCCO1 (stereo not given in full)
2	7.6%	O=C(CN(c1ccccc1)S(=O)(=O)c1ccccc1[N+](=O)[O-])N1CCCC1
3	-4.1%	Cc1ccc(N(C)C(=O)C2CCN(S(=O)(=O)c3c(C)noc3/C=C/c3c(C)cc(C)cc3C)CC2)cc1
4	-6.5%	O=C(c1cccc(N2C(=O)C3C4C=CC(C4)C3C2=O)c1)N1CCN(c2ccccc2)CC1 (stereo not given)
5	12.0%	CCOC(=O)c1ccccc1NC(=O)CN(c1ccccc1C)S(C)(=O)=O
6	-10.6%	c1ccc(Sc2cccc3ccccc23)c(CNC2=NCCN2)c1
7	?	CCOC(=O)C1=C(C)N=C2SC(C(=O)OC)=CC(=O)N2C1c1ccc(OC)cc1 (stereo not given)
8	?	CCOC(=O)/C(=C/c1ccc(OC(=O)c2ccccc2)cc1)C(C)=O
9	-8.9%	CSc1ncc(CN2CCN(C3CCCC3)C(CCO)C2)cn1 (stereo not given)
10	5.3%	Cc1ccc(CSc2nnc(Nc3ccc(C)cc3)s2)cc1
11	22.2%	COc1ccc(Oc2nc(SC)nc3ccsc23)cc1
12	7.9%	O=C(COc1ccc(C(=O)c2ccccc2)cc1)NC1CCCCCC1
13	3.6%	Cc1c(/C=N/N2C(=O)C3C4C=CC(C4)C3C2=O)c2ccccc2n1C (stereo not given)
14	2.1%	COc1ccc(Br)cc1CNC(=O)CCc1cn(Cc2ccc(C)cc2)c2ccccc12
15	0.8%	Cc1noc(C)c1C(=O)N1CCC2(CC1)Oc1ccc(F)cc1C(=O)C21CC(c2ccc(Cl)cc2)=NO1 (stereo not given)
16	11.6%	CCOc1nc(OCC)nc(-n2cc(-c3ccccc3)nn2)n1
17	-19.3%	CC(C)(C)C1CCC(CN2C(Nc3ccccc3)=NC[C@@H]2Cc2ccccc2)CC1 (stereo not given in full)
18	-16.0%	CC(C)CN1C(=O)c2ccc(C(=O)Nc3c[nH]c(=O)[nH]c3=O)cc2C1=O
19	1.9%	Cc1nc(N/C(N)=N/S(=O)(=O)c2ccccc2)nc2ccccc12
20	?	COC(=O)c1ccc(/C=N/NS(=O)(=O)c2cc(C)ccc2C)cc1
21	-15.6%	COc1ccc(O)c(C(=O)C2c3ccccc3C(=O)N2c2ccc(C)cc2)c1 (stereo not given)
22	2.4%	Cc1ccc(S(=O)(=O)Nc2cc(=O)[nH]c3c2CCC3)cc1
23	4.3%	O=C(Cn1c(=O)cnc2ccccc21)Nc1cccc(S(=O)(=O)N2CCOCC2)c1
24	10.3%	Cc1ccc(CNC(=O)C2CCC(CNS(=O)(=O)c3ccc(C)cc3)CC2)cc1 (stereo not given)
25	-3.1%	Cc1ccc(C)c(NC(=S)NCc2ccc3c(c2)OCO3)c1
26	7.8%	Cc1ccc(S(=O)(=O)Cc2nc(-c3ccc(C(=O)NCc4ccccc4F)cc3)oc2C)cc1
27	?	CCCCC1=CC2=C(c3ccco3)C(=O)C(C)(OC(=O)c3ccc(OC)cc3)C(=O)C2=CN1Cc1ccc2c(c1)OCO2 (stereo not given)
28	-4.5%	COc1ccc(-c2cc([C@H]3[C@H]4C=CC[C@@H](C)[C@@H]4C(=O)N3Cc3ccccc3)ccc2F)cc1
29	-1.1%	Cc1nnc(NC(=O)c2ccc(S(=O)(=O)N3CCCCCC3)cc2)o1
30	-19.0%	Cc1cc(NC(=O)COc2ccccc2C)no1
31	8.1%	CCN1CCN(S(=O)(=O)Cc2ccccc2Cl)CC1
32	-22.4%	CCO[C@@H]1OC(C(=O)NC2CC2)=C[C@H](C2CC2)[C@H]1CCCO
33	-24.5%	COc1ccc(N2C(=O)CCC(C(=O)N3CCCCC3)C2c2ccc(OC)c(OC)c2)cc1 (stereo not given)
34	3.5%&-0.1%	COc1cccc(CNC(=O)CN2C(=O)COc3ccc(S(=O)(=O)N4CCOCC4)cc32)c1
35	-2.0%	COc1ccc(Cl)cc1NC(=O)CC(C)c1ccccc1 (stereo not given)
36	-7.8%	Cn1ccnc1C1CCCCN1Cc1nc(Cc2cccc(C(F)(F)F)c2)no1 (stereo not given)
37	0.0%	CCc1ccc(CNC(=O)c2c(C)oc3ncn(CC(C)C)c(=O)c23)cc1
38	-4.6%	COCCN1Cc2cccc(C(=O)NCCCN3CCCC3=O)c2C1=O
39	-1.3%	CC(=O)Nc1ccc(CN2CCCC(CO)(Cc3ccccc3C)C2)cc1 (stereo not given)
40	8.5%	O=C(CSc1nc2ccccc2n1Cc1ccccc1)NCc1ccccc1
41	-9.8%	COc1ccc(-n2c(=O)cc(N3CCN(Cc4ccccc4)CC3)[nH]c2=O)cc1
42	-4.9%	COc1ccc(NC(=O)NC2CCCCCCC2)cc1
43	-0.2%	COc1ccccc1S(=O)(=O)Nc1ccc(-c2nnc3n2CCCCC3)cc1
44	9.8%	Cc1ccc(-c2nc(SC(C)C(=O)c3c(N)n(C)c(=O)n(C)c3=O)n[nH]2)cc1 (stereo not given)
45	13.9%	CC1=C(c2ccc(C(C)C)cc2)S(=O)(=O)NC1=NCCCN1CCN(c2ccccc2F)CC1
46	-17.4%	N#Cc1ccc(CSC2=NCCN2)cc1
47	10.6%	Cc1nn(-c2ccccc2)c(C)c1C(=O)OCC(=O)N(C)C1CCS(=O)(=O)C1 (stereo not given)
48	-14.2%	Cc1cccc(NC(=O)c2ccccc2C(=O)Nc2cccc(C)c2)c1
49	12.8%	O=C(CSCc1ccccc1Br)N/N=C/c1ccccc1C(=O)O
50	?	COC(=O)c1nnn(CC(=O)NC(=O)Nc2ccccc2F)c1C(=O)OC
51	10.3%	Cc1ccc(-n2ncc3c(NC4CCCCCC4)ncnc32)cc1
52	-22.6%	CC1(CC(=O)N/N=C/c2ccc(-c3cccc(C(F)(F)F)c3)o2)OCCO1
53	-1.7%	Cc1ccc(S(=O)(=O)NC2(C(F)(F)F)C(=O)Nc3c2c(=O)n(C)c(=O)n3C)cc1 (stereo not given)
54	15.1%	COc1ccc(CC(=O)Nc2nnc(C(C)C)s2)cc1
55	-1.4%	COc1ccc(C2=NN(CN3C(=O)C(=O)c4ccccc43)C(c3ccc(Br)cc3)C2)cc1 (stereo not given)
56	-23.0%	COc1ccccc1S(=O)(=O)N1CCN(S(=O)(=O)c2ccccc2C#N)CC1
57	-7.4%	COc1ccc([N+](=O)[O-])cc1NC(=O)CCNC(=O)Cn1ccc2ccccc2c1=O
58	-1.7%	CCCc1cc(=O)[nH]c2nnc(SCC(=O)Nc3ccc(C(C)=O)cc3)n12
59	7.3%	COCCn1nnnc1C(c1ccccn1)N1CCN(c2cc(Cl)ccc2C)CC1 (stereo not given)
60	-6.5%	CC(Oc1ccccc1)C(=O)N=C1SC2CS(=O)(=O)CC2N1c1cccc(F)c1 (stereo not given)

The list goes on:
cpd	VDR inhibitor	Compound
61	?	COC(=O)c1cc(=O)n(Cc2ccco2)c(=Nc2ccc(F)cc2)s1
62	-18.3%	Cc1cc2ccccc2c(=O)n1CC(=O)NCc1ccco1
63	-15.8%	COc1ccccc1S(=O)(=O)Cc1ccc(C(=O)NC2CCCCC2)o1
64	6.2%	CC1=C(C(=O)NCc2ccccc2)C(c2cccs2)NC(=S)N1 (stereo not given)
65	-1.9%	CN(C)C(=O)CCc1ccc2c3c([nH]c2c1)[C@]1(CCc2ccccc2)[C@@H](C(=O)N2CCCCC2)C[C@H](CC(=O)NCCc2ccccn2)C(=O)N1CC3
66	-2.0%	COc1cccc(-c2nc(C#N)c(N3CCN(C(=O)c4ccco4)CC3)o2)c1
67	-9.3%	COc1ccc(Cc2noc(COc3ccc(Cl)cc3)n2)cc1
68	18.4%	COC(=O)c1ccc(NC(=O)CCc2c(C)nn(-c3ccc(N4CCOCC4)nn3)c2C)cc1
69	-15.1%	CCCC(C)NC(=O)CSc1nc2ccc(C)cc2[nH]1 (stereo not given)
70	-7.6%	Cc1cccc(Cc2cccc(C)c2O)c1O
71	-12.3%	COc1ccc(/C=C(/NC(=O)c2ccccc2)C(=O)N2CCCCC2)cc1
72	-3.1%	COc1ccc(Cl)cc1NC(=O)CN(C)CC(=O)NCc1ccc(F)cc1
73	11.8%	CN(C)c1cccc(C(=O)NCCCn2ccc3ccccc32)c1
74	-19.1%	Cc1ccc(C2CC(c3ccccc3)=NN2C(=S)Nc2ccccc2)o1 (stereo not given)
75	-1.8%	CC1(C)CC(=O)C(CC2C(=O)CC(C)(C)CC2=O)C(=O)C1
76	-1.8%	COc1ccc(CCNC(=O)CN(c2cc(C(F)(F)F)ccc2Cl)S(C)(=O)=O)cc1
77	?	CS(=O)(=O)N(CC(=O)N1CCCCCC1)c1cc(Cl)ccc1Cl
78	-5.4%	Cc1cc(=O)oc2cc(NS(=O)(=O)c3ccccc3)ccc12
79	1.1%	COc1ccc(CCn2nc(C)c([N+](=O)[O-])c2C)cc1
80	-13.4%	C=C1CCN(C(C(=O)O)C(C)C)S(=O)(=O)c2ccccc21 (stereo not given)
81	13.8%	COc1ccc(NC(=O)Cn2c(C)c3cnn(-c4ccccc4)c(=O)c3c2C)c(OC)c1
82	-7.0%	CCOC(=O)N1CCC(NC(=O)c2cc(-c3ccc(F)cc3)[nH]c2C)CC1
83	-8.9%	Cc1ccc2c(c1)N(C(=O)CCC(=O)NCCCN1CCOCC1)CC(C)O2 (stereo not given)
84	3.7%	CCOC(=O)c1cc(-c2ccccc2)nc2nc(N3CCCCC3)sc12
85	9.6%	COc1ccc(CNC(=O)c2cc3c(=O)[nH]c4ccc(C)cc4c3s2)c(OC)c1
86	-14.6%	Cc1ccc(S(=O)(=O)N2CCN(C(=O)Cn3nc(C(=O)O)c4ccccc4c3=O)CC2)cc1
87	8.0%	CN(CC(=O)Nc1cccc(F)c1)C(=O)CN1c2cccc3cccc(c23)S1(=O)=O
88	11.3%	CC(C)(C)c1ccc(C(=O)Nc2c3c(nn2C(C)(C)C)CS(=O)(=O)C3)cc1
89	0.5%	COc1cc2nc(CN3CCN(C(C)=O)CC3)[nH]c(=O)c2cc1OC
90	-13.9%	O=C1NC(=S)N/C1=C\C=C\c1ccccc1

Arranged by value in VDR inhibitor (lowest first): three from the list above.
item	mol	VDR inhibitor
71	COc1ccc(/C=C(/NC(=O)c2ccccc2)C(=O)N2CCCCC2)cc1	-12.3%
66	COc1cccc(-c2nc(C#N)c(N3CCN(C(=O)c4ccco4)CC3)o2)c1	-2.0%
29	Cc1nnc(NC(=O)c2ccc(S(=O)(=O)N3CCCCCC3)cc2)o1	-1.1%

Next section:
cpd	VDR inhibitor	Compound
91	-10.8%	O=C(O)C1CCCCC1C(=O)Nc1ccc(S(=O)(=O)N2CCOCC2)cc1 (stereo not given)
92	-13.0%	CCN(CC(=O)Nc1ccccc1C(F)(F)F)C(=O)c1ccc(N2C(=O)CCC2=O)cc1
93	8.8%	Cc1ccc2c(c1)N(CCC(=O)NCc1ccccn1)C(=O)CO2
94	-0.2%	N#Cc1c2c(c(NCCCN3CCOCC3)n3c1nc1ccccc13)CCC2
95	-19.7%&-15.6%	Cc1cc(C)cc(N(CC(=O)NC2CCCCCC2)S(=O)(=O)c2c(C)[nH]c(=O)[nH]c2=O)c1
96	-2.2%	COCCN(C(=O)CSc1ncn[nH]1)c1c(N)n(Cc2ccccc2)c(=O)[nH]c1=O
97	-9.7%	COc1ccc(/C=C/C(=O)NCC2COc3ccccc3O2)c(OC)c1 (stereo not given)
98	7.1%	Cc1ccccc1OCC(=O)OCC(=O)c1ccc(OC(=O)c2ccccc2)cc1
99	-5.6%	OCC[C@@H]1C[C@H](O)[C@@H](O)[C@]2(Cc3ccccc3CCO2)O1
100	-3.8%	C=CCOc1c(Br)cc(CNn2c(C)n[nH]c2=S)cc1OC
101	93.5%[activator]	O=C(CSC1=NCCS1)Nc1ccc(F)cc1
102	-6.1%	CC1(C)CC(=O)C=C(NCc2ccco2)C1
103	-2.6%	CCO[C@H]1OC(C(=O)N2CCN(C)CC2)=C[C@@H](C2CC2)[C@@H]1CCCO
104	4.2%	CC(=O)NCC(c1ccc2c(c1)OCO2)N1CCN(c2ccccc2)CC1 (stereo not given)
105	-8.0%	CCc1nc(NCCO)c(C#N)c2c1CSC(C)(C)C2
106	1.1%	COc1ccccc1NC(=O)Nc1nnc(Cc2ccccc2F)s1
107	-22.6%	Cc1csc2c(=O)sc(NC(=O)c3ccco3)nc12
108	9.6%	COc1ccc(OCC(=O)OC2CCN(C)CC2)cc1
109	-13.5%	O=C(C1=C(O)C(=O)N(CCN2CCOCC2)C1c1ccc(F)cc1)c1cc2ccccc2o1 (stereo not given)
110	9.7%	Cc1ccc(C)c(NC(=O)CSc2ncc3c(n2)-c2cc(Cl)ccc2N(Cc2ccccc2F)S3(=O)=O)c1
111	8.9%	C/C(=N\NC(N)=S)c1ccccc1

Ordered by molar mass (largest number first): part of the list above
cpd	VDR inhibitor	Compound
27	?	CCCCC1=CC2=C(c3ccco3)C(=O)C(C)(OC(=O)c3ccc(OC)cc3)C(=O)C2=CN1Cc1ccc2c(c1)OCO2 (stereo not given)
110	9.7%	Cc1ccc(C)c(NC(=O)CSc2ncc3c(n2)-c2cc(Cl)ccc2N(Cc2ccccc2F)S3(=O)=O)c1
109	-13.5%	O=C(C1=C(O)C(=O)N(CCN2CCOCC2)C1c1ccc(F)cc1)c1cc2ccccc2o1 (stereo not given)
61	?	COC(=O)c1cc(=O)n(Cc2ccco2)c(=Nc2ccc(F)cc2)s1
48	-14.2%	Cc1cccc(NC(=O)c2ccccc2C(=O)Nc2cccc(C)c2)c1
73	11.8%	CN(C)c1cccc(C(=O)NCCCn2ccc3ccccc32)c1
